PrP UTR inh: inhibition of PrP 5' UTR reporter expression; actives 0.35% (n = 340,000); cell-based PrP 5' UTR mRNA reporter, plate reader; inhibition, % (concentration not given with the values);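 active = every replicate at 50% or more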;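 also: 0 = median of the neutral control wells; tested in H4 reporter cells; numbers are from one replicate; inactives centre near -14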
Sa RN4220 lethal: S. aureus RN4220 growth inhibition | OD600, 16 h | inhibition, % (no concentration beside the values) | actives 0.33% (n = 330,000);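 active = z-score of -3 or lower and OD600 up to 0.18 on both plates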;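 also: plate controls were untreated cells for no effect and reference antibiotic for full effect; stock transfer was 100 nL into about 80 µL; one replicate is shown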
Sa ugtP lethal: growth inhibition of S. aureus ugtP deletion strain; S. aureus RN4220 ugtP deletion, OD600 growth, 16 h; some inactives read as strong as hits; growth inhibition, % (test concentration not listed); actives 0.54% (n = 330,000);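 active = z-score under -3 and OD600 up to 0.15 on both plates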;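 also: plate controls were untreated wells for no effect and antibiotic for full effect; wells of about 80 µL received 100 nL stock; the first replicate is given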
Autofluor counter: compound fluorescence in toxin protease inhibitor counterscreen. fluorescence intensity (test concentration not listed). compound autofluorescence counterscreen, microsphere flow cytometry; active compounds read high. actives 3.1% (n = 360,000). AID 624483;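 active = at least 3 SD above the mean of all compounds, about 16000 in these data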;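 also: 100 nL of 1 mM stock went into each well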
BJeLR viability: BJeLR cell viability loss; BJeLR (HRASV12) viability, CellTiter-Glo ATP luminescence, 48 h; reference of the scale not given here; actives 0.17% (n = 300,000); inhibition, % (concentration not given with the values);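 active = replicate mean above 50%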;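 also: 50 nL library stock added to about 25 µL; numbers are from one replicate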
Mtb hypoxia inh: inhibitors of hypoxia-regulated fluorescent reporter in Mycobacterium tuberculosis; fluorescence inhibition, % (concentration not given with the values); AID 1159583; actives 0.1% (n = 300,000); M. tuberculosis hypoxia-regulated fluorescent reporter, fluorescence;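 active = 35 to 45% if threefold the growth effect, above 45% if 1.5-fold the growth effect; inactive = the rest, general growth blockers included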;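 also: wells of about 50 µL received 100 nL stock; 0% = vehicle wells and 100% = reference inhibitor wells; whole bacteria with a GFP reporter of the hypoxia response; strong numbers were not always called active; many hits fall short of the cut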
Mtb hypoxia inh growth: recorded beside Mtb hypoxia inh, whose call it bears; growth inhibition, %; measured here: M. tuberculosis growth (absorbance);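 0% = vehicle and 100% = reference antibiotic; read after six days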
Active calls of the source: *; x = not tested or not shown.

SMILES	PrP UTR inh	Sa RN4220 lethal	Sa ugtP lethal	Autofluor counter	BJeLR viability	Mtb hypoxia inh	Mtb hypoxia inh growth
CC1=CC(C)(C)N(C(=O)CSc2nncn2C)c2ccccc21	-4	-1.9	-2	10918	-6	0	1
Cn1c(=O)oc2cc(S(=O)(=O)N3CCCc4ccccc43)ccc21	-11	22	-2	5526	19	0	6
C=CCn1c(=O)n(CCC#N)c(=O)n(CCC#N)c1=O	-23	-2.6	-5	5777	1	-3	-9
O=C(NCC1CCNCC1)c1ccncc1	-89	-15	-5	3429	-1	15	6
N#Cc1cc2cc3c(cc2nc1SCC(=O)N1CCOCC1)OCCO3	49	4.7	14	4086	4	5	11
Cc1cc(Br)c2nc3c(c(C(=O)O)c2c1)CCCCC3	-4	4.4	7	6392	-6	1	9
Cc1c(N=N/C(C(=O)Nc2ccccc2)=C(/O)c2ccccc2)c(=O)n(-c2ccccc2)n1C	-1	-3.6	-2	2225	-2	0	4
N#C/C(=C\c1ccc([N+](=O)[O-])o1)C(=O)Nc1ccc(F)cc1	-6	0.6	-2	4379	21	14	4
CCOC(=O)C1=C(COC(=O)CNC(=O)c2ccccc2F)NC(=O)NC1C (stereo not drawn)	-14	-1.5	1	4038	-3	0	3
COc1ccc(-c2cc(CCCC(=O)NCCc3ccc(OC)cc3OC)no2)cc1	-23	4.0	-10	24435*	-7	8	3
Cc1cc(SCc2cccc(C(F)(F)F)c2)nc(=O)[nH]1	8	4.2	4	5895	-5	-1	-3
Cc1ccc(-c2nnc(N(C)C(=O)c3ccccn3)s2)cn1	-12	5.3	-3	2869	-1	x	x
CCN(CC(=O)Nc1c(F)cccc1F)C(=O)/C=C/c1c(C)nn(-c2ccc(F)cc2)c1C	-28	-2.9	7	5966	-7	0	-7
CNC(=S)NNC(=O)c1cc(C(C)(C)C)nn1Cc1ccc(F)cc1	-8	-1.2	-8	6270	4	-2	1
COc1cc(C(=O)Nc2ccc(S(=O)(=O)Nc3cc(C)on3)cc2)cc(OC)c1OC	-4	-17	-8	3054	5	x	x
CC1(C)CCc2nc(SCc3ccccc3)c(C#N)cc2C1	-21	-1.6	38	6156	-3	-1	4
COC(=O)c1ccc(NC2=C(Cl)C(=O)OC2OC(=O)c2ccccc2)cc1 (stereo not drawn)	-14	4.8	7	4352	1	14	9
CC(C)(C)OC(=O)NCCCC[C@H](NC(=O)c1nc[nH]c1C(=O)NCc1ccccc1)C(=O)OC(C)(C)C	-8	x	x	3450	6	x	x
CCOC(=O)C1=C(COC(=O)C2CC(=O)N(CCc3ccccc3)C2)NC(=O)NC1C (stereo not drawn)	-9	4.1	4	3500	x	2	8
CCOC(=O)c1[nH]c2c(c1-c1ccccc1)C(=O)CC(c1ccc(Cl)cc1)C2 (stereo not drawn)	-25	6.1	16	4445	6	x	x
Cc1ccc(C(=O)N2CCN(Cc3ccc4c(c3)OCO4)CC2)o1	2	-3.6	-5	3241	1	x	x
CC(C)(/C=N/O)/[N+]([O-])=C/C=[N+](\[O-])C(C)(C)/C=N/O	-9	x	x	2490	-5	x	x
COC(=O)CSc1ccccc1C(=O)OC	-21	4.6	-4	11220	-10	3	8
O=C(NCC1CCCO1)C1CCCCN1S(=O)(=O)c1ccc(F)cc1 (stereo not drawn)	-3	1.1	5	4588	-6	7	6
Cc1ccsc1/C=C/C1=Cc2c(sc(NC(=O)CSc3n[nH]c(N)n3)c2C#N)C(C)(C)C1	-25	2.1	-2	18756*	4	1	4
CN(C(=O)C12CC3CC(CC(C3)C1)C2)C1(C)CCS(=O)(=O)C1 (stereo not drawn)	-8	8.2	-4	3300	16	13	5
CCOC(=O)C1CCN(C(=O)c2cc3cc(F)ccc3[nH]2)CC1	-18	3.5	3	3463	0	7	5
Cc1ccnc(NS(=O)(=O)c2ccc(NS(=O)(=O)c3cc(Cl)ccc3Cl)cc2)n1	0	1.1	-15	5187	-7	-2	-3
O=C(Nc1nc(-c2nc3ccccc3s2)cs1)c1ccc(S(=O)(=O)N2CCOCC2)cc1	-48	43	23	8079	15	-2	3
COc1ccc(NS(=O)(=O)c2cccc(C(=O)NN=Cc3ccc(O)c(OC)c3)c2)cc1	-2	-0.5	5	2867	x	8	1
Cc1cc(NN)nc2ccc(Cl)cc12	-16	3.2	5	3350	14	5	2
CC1OC(OC2C=C3CCC4C(CC[C@]5(C)C(c6ccc(=O)oc6)CC[C@]45O)[C@@]3(C)CC2)C(O)C(O)C1O (stereo partly drawn)	x	2.5	-13	x	x	0	-1
Cc1ccc(-c2noc(C3CCCN(C(=O)c4ccccc4)C3)n2)o1 (stereo not drawn)	-19	2.2	-2	7939	-8	-6	5
CCOc1ccccc1N=NC1C(=O)N(C(N)=S)N=C1C (stereo not drawn)	1	1.7	3	3694	-4	-1	1
Cc1ccc(F)cc1CNC(=O)C1CCC(=O)N(CCc2ccccc2)C1 (stereo not drawn)	-14	1.1	9	5846	7	7	3
CC(C)CC(=O)N1CCN(Cc2ccccc2[N+](=O)[O-])CC1	-13	3.8	8	4498	1	11	4
COc1ccc(Cl)cc1NC(=O)c1c(-c2ccccc2)noc1C	-3	0.3	-4	2979	3	x	x
CC1C/C(=N\NC(=O)c2ccc([N+](=O)[O-])cc2)CC(C)(C)C1 (stereo not drawn)	-47	x	x	3347	4	x	x
CCC1=NC(c2ccccc2)N(O)C1(C)C (stereo not drawn)	-29	-9.0	-3	2833	1	-3	6
CC1=C(C(=O)NC2CCCC(C)C2C)C2(CCCCC2)OC1=O (stereo not drawn)	-21	3.3	9	5618	-4	x	x
CCOC(=O)C1=C(C)NC(C)=C(C(=O)OCC)C1C(=O)OCC(=O)NC	-8	9.5	7	3763	x	6	10
O=C(NN=Cc1ccccc1)c1cccc(C(=O)NN=Cc2ccccc2)n1	x	1.5	9	x	x	2	-3
Cc1nc(N2CCOCC2)c2c(C)c(C(=O)Nc3ccc(F)cc3Cl)sc2n1	-29	4.0	-1	4403	-2	-3	-2
CCOC(=O)C1(CCc2ccccc2)CCN(C2Cc3ccccc3C2)CC1	-17	5.1	7	4138	7	-5	-9
COc1cccc(CNC(=O)c2ccc3c(c2)N(C)CCS3)c1OC	59*	17	17	5574	-5	-5	-4
Clc1ccc(C2Nc3cccc4cccc(c34)N2)cc1Cl	-27	7.5	-2	3467	-7	-1	-8
CCN(CC)C(=O)CSc1nc2c(sc(=S)n2-c2ccccc2)c(=O)n1-c1ccccc1OC	-24	1.7	6	4076	20	0	8
CC(=O)NC(Cc1ccc(F)cc1)C(=O)NC1CCN(C(=O)Nc2cccc(C)c2)CC1 (stereo not drawn)	-13	4.5	11	5891	9	4	-6
COc1ccc(CCNC2CCN(C)CC2)cc1OC	-29	0.0	3	4138	3	x	x
Cc1cccnc1NC(=S)Nc1ncccc1C	-35	5.8	7	2885	23	7	10

2 entries from above in another layout:
SMILES,PrP UTR inh,Sa RN4220 lethal,Sa ugtP lethal,Autofluor counter,BJeLR viability,Mtb hypoxia inh,Mtb hypoxia inh growth
Clc1ccc(C2Nc3cccc4cccc(c34)N2)cc1Cl,-27,7.5,-2,3467,-7,-1,-8
CCN(CC)C(=O)CSc1nc2c(sc(=S)n2-c2ccccc2)c(=O)n1-c1ccccc1OC,-24,1.7,6,4076,20,0,8

The listing continues.
SMILES	PrP UTR inh	Sa RN4220 lethal	Sa ugtP lethal	Autofluor counter	BJeLR viability	Mtb hypoxia inh	Mtb hypoxia inh growth
Clc1cc(Br)ccc1OCCN1CCOCC1	-8	3.4	2	7118	-8	5	12
CC12CC3CC(C)(C1)CC(NCc1ccncc1)(C3)C2	-17	5.1	5	4219	x	15	5
O=C(NN=Cc1c[nH]c2ccccc12)C1CC(=O)N(c2ccccc2)C1 (stereo not drawn)	x	0.7	5	x	x	-4	11
O=C(COc1ccc(S(=O)(=O)N2CCOCC2)cc1)NC1CCCCC1	-12	5.8	4	8828	x	0	5
CCOc1ccc(NC(=O)COc2cccc3c2CCN(Cc2cccnc2)C3=O)cc1	6	0.5	1	6443	1	-3	13
COc1ccc(C(=O)Nn2c(C)nc3ccccc3c2=O)cc1OC	-9	3.7	16	2961	-7	18	-2
CSc1nnc2c(n1)c(C)nn2-c1ccc(C)cc1	-54	2.7	3	14065	11	4	8
CCOC(=O)c1cc(-c2nnc(SCC(=O)Nc3ccc(F)cc3)o2)c(C)nc1C	-21	16	17	2348	3	-5	5
Cn1c(=O)c(C(N)=S)cn(-c2ccccc2)c1=O	-13	2.3	7	3436	-1	-2	0
COc1ccccc1N1CCN(C(=O)CSc2ccc3c(C)cc(C)nc3n2)CC1	-3	4.5	4	3695	-17	x	x
COC(=O)c1cc(NC(=O)CN2C(=O)CSC2=O)ccc1Cl	-20	4.8	-6	8322	7	5	-4
CN1CCN(C(=O)C2=C[C@H](c3ccc(C(F)(F)F)cc3)C[C@H](OCCCCO)O2)CC1	-18	x	x	4100	-2	x	x
NS(=O)(=O)c1cccc(NC(=O)COC(=O)/C=C/c2nc3ccccc3s2)c1	-21	3.0	-1	3780	x	6	7
CCn1c(/C=C/c2c(C)[nH]c3ccccc23)nc2ccccc2c1=O	-51	-3.8	-14	11331	29	-8	-2
CCOc1nc(N2CCOCC2)nc(C)c1[N+](=O)[O-]	-22	6.0	5	2921	-7	6	6
Cc1cccc(C(=O)NNC(=S)NC(=O)c2ccccc2)c1	-4	52	20	3502	0	-16	-8
COc1ccc(C(=O)CSc2nnc(-c3cccs3)n2-c2ccccc2)cc1	-13	-1.2	-9	2794	5	x	x
Cc1ccc([N+](=O)[O-])cc1NC(=O)Cc1cccs1	-19	-1.6	4	2886	1	-3	7
CCOc1ccc(S(=O)(=O)N(C)CC(=O)N2CCN(CC)CC2)cc1	-13	1.9	7	3785	-4	5	-2
Cc1ccc(NC(=O)CSc2nc3ccccc3c(=O)n2Cc2cccs2)cc1	-65	1.3	-1	11020	5	-5	-1
COC(=O)C=c1sc(=C(C#N)C(=O)NCc2ccccc2)n(-c2ccccc2)c1=O	x	-0.5	-5	x	x	-2	2
CCc1ccccc1NC1=NCC(=O)N1C1CCCCC1	-4	4.4	4	2843	-11	11	3
O=C(COc1ccc(Br)cc1CNCCCN1CCOCC1)Nc1ccccc1	-14	3.9	2	2544	4	6	8
CSCCC1NC(=O)N(CC(=O)Nc2ccc(N3CCCCC3)cc2)C1=O (stereo not drawn)	-35	2.8	4	2854	0	x	x
COC(=O)c1ccccc1NC(=O)CSc1nc2ccccc2c(=O)[nH]1	-5	4.0	0	4199	7	x	x
COC(=O)C1=C(c2cc3ccccc3s2)C[C@@H]2CC[C@H]1N2C(=O)NCCO	-22	x	x	3394	12	x	x
CCC(C)[C@H](NC(=O)N1CCCCCC1)C(=O)OC (stereo partly drawn)	x	1.0	8	5496	-15	3	-1
Cc1ccc(C(=O)N2CCOCC2)c(F)c1F	9	5.6	7	3237	3	15	6
CCOC(=O)NC(NC(=S)Nc1ccccc1[N+](=O)[O-])C(Cl)(Cl)Cl (stereo not drawn)	-36	3.2	-5	8984	6	2	5
Cc1ccc(-c2nc(NN=Cc3ccccc3[N+](=O)[O-])c3ccccc3n2)cc1	x	0.2	-11	x	x	11	-2
O=C(NNC(=O)C12CC3CC(CC(C3)C1)C2)c1ccccc1[N+](=O)[O-]	-8	1.7	-3	4010	-7	2	-3
O=c1c2sccc2nc(SCc2ccc([N+](=O)[O-])cc2)n1Cc1ccccn1	-10	-0.4	63	2586	2	15	-1
CCC1COC(c2cccn2Cc2ccc(Cl)cc2)=N1 (stereo not drawn)	-24	3.7	8	2686	-5	3	4
Cc1nc2cc(NC(=O)CSc3nc4c(C)cccc4cc3C#N)ccc2s1	-4	5.0	97*	16070	5	3	-1
Cc1ccc(C2CCN(C(=O)Nc3ccc(F)cc3)C2)cc1 (stereo not drawn)	-43	1.5	8	4465	-5	15	14

Profiles, looked up by structure. Screens in order: PrP UTR inh, Sa RN4220 lethal, Sa ugtP lethal, Autofluor counter, BJeLR viability, Mtb hypoxia inh, Mtb hypoxia inh growth
CCC1COC(c2cccn2Cc2ccc(Cl)cc2)=N1 (stereo not drawn) reads -24, 3.7, 8, 2686, -5, 3, 4
Cc1ccc(C2CCN(C(=O)Nc3ccc(F)cc3)C2)cc1 (stereo not drawn) reads -43, 1.5, 8, 4465, -5, 15, 14
O=C(NNC(=O)C12CC3CC(CC(C3)C1)C2)c1ccccc1[N+](=O)[O-] reads -8, 1.7, -3, 4010, -7, 2, -3
O=c1c2sccc2nc(SCc2ccc([N+](=O)[O-])cc2)n1Cc1ccccn1 reads -10, -0.4, 63, 2586, 2, 15, -1
Cc1nc2cc(NC(=O)CSc3nc4c(C)cccc4cc3C#N)ccc2s1 reads -4, 5.0, 97*, 16070, 5, 3, -1

Screening data: PubChem, several laboratories
